AmpC inh no det: AmpC beta-lactamase inhibition, detergent-free assay. AmpC nitrocefin hydrolysis, absorbance 480 nm, no detergent; potencies from a single point are estimates. 71,000 tested, 1.8% active. P00811. Potency, µM (top dose mostly 28.7 µM), for inactives: at the top dose activity change, negative = inhibition; active = falling curve, for most hits resting on a single point; inconclusive = weak or doubtful change; inactive = flat or rising curve; further: % of control where 0% means no effect; about half of the hits show no inhibition at the top dose; a quarter of the inactives give rising signals
Target sequence (P00811 whole entry, looked up): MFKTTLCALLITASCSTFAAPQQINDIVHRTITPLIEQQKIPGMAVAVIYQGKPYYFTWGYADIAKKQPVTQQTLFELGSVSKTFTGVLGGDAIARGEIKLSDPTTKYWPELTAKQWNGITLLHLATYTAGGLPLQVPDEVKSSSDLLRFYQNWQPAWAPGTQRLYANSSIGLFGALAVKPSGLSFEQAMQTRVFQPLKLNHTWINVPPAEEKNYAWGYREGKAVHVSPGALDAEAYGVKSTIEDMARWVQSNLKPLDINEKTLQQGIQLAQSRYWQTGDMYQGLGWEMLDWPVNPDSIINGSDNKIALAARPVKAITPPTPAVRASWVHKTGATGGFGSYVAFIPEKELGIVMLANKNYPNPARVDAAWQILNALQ
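AmpC, 20 mM phosphate pH 7.0; 15 min cpd preinc, RT; start with nitrocefin (800 uM stock); A480 kinetic read, 20 s intervals, 4 min. No-enzyme wells = negative control.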
The depositor's hits bear a star; ? = inconclusive; [ ] = another dose, or the depositor's remark. Potency means the concentration at half of the fitted maximal effect.

SMILES	AmpC inh no det
COc1ccccc1CCn1c(=O)c(-c2ccc(F)cc2)nc2cncnc21	5%
Cc1nc(N2CCN(Cc3nc4ccccc4[nH]3)CC2)c2oc3ccccc3c2n1	99%
CCCc1ccc(OCc2ccc(C(=O)OC)o2)c(OC)c1	33%
CN(C)C(=O)c1ccc(-c2ccc3ncnc(NCc4ccccc4)c3c2)cc1	44%
COc1ccc2[nH]c(=O)c(CN(C(=O)c3ccco3)C3CCCCC3)cc2c1	13%
Cc1csc(NC(=O)c2cnccn2)n1	-18%
CSc1nnc(Cn2c(=O)sc3ccccc32)n1CCc1ccccc1	115%
Cc1cccc(CCNC(=O)CCc2nc(-c3ccccc3F)no2)c1	24%
CCn1c(=O)cc(SCC(=O)Nc2ccc3c(c2)OCO3)c2ccccc21	17%
O=C(CSc1nnc(-c2cccnc2)o1)Nc1ccccn1	4%
CCOC(=O)C1CCN(c2c(NCCCN(C)C3CCCCC3)c(=O)c2=O)CC1	-8%
COc1cccc(-c2noc(N)c2C#N)c1	-8%
Cc1noc(NS(=O)(=O)c2ccc(NC(=O)Nc3ccc(Cl)c(Cl)c3)cc2)c1C	-10%
CN(C)C(=O)c1ccc(-c2nc(Nc3ccccc3)c3ccccc3n2)cc1	106%
O=C(CSc1nc(O)c(Cc2ccccc2)c(=O)[nH]1)Nc1ccccc1	-17%
Cc1cccc(N2CCN(C(=O)c3ccc(N4CCCC4=O)cc3)CC2C)c1 (stereo not drawn)	69%
Cc1ccnc(SCCn2c(N(C)Cc3ccccc3)nc3c2c(=O)n(C)c(=O)n3C)n1	-3%
COc1ccc(-c2nc(-c3ccncc3)no2)cc1OC	95%
O=C(O)c1cccc(N=Nc2c(S(=O)(=O)O)ccc3c2C(=O)c2ccccc2C3=O)c1O	-26%[5.75 µM]
COc1ccccc1CNC(=O)Cn1cnc2ccccc2c1=O	-13%
N=c1sc2ccccc2n1CCS (tested in a mixture with another compound)	-4%[5.75 µM]
CC(c1ccccc1)n1cc(C(=O)NCC2COc3ccccc3O2)nn1 (stereo not drawn)	1%
COc1ccccc1NC(=O)N1CCN(c2cccc(C(F)(F)F)c2)CC1	53%
O=C(CCn1c(=O)[nH]c2ccccc2c1=O)Nc1ccccc1	-3%
Cc1nc(SCC(=O)N2CCCc3ccccc32)c2oc3ccccc3c2n1	100%
CC(=O)c1c(C)nn(CC(O)Cn2c3c(c4cc(C)ccc42)CCCC3=O)c1C (stereo not drawn)	156%
Cc1ccc(OCC(O)CN2CCN(CC(O)COc3ccc(C)cc3)CC2)cc1 (stereo not drawn)	103%
COc1ccc(C2(O)CCN(C(=O)Cc3cccnc3)CC2)cc1	-19%
O=C(CN(Cc1ccccc1F)C(=O)Cn1nnc(-c2cccs2)n1)NCC1CCCO1 (stereo not drawn)	40%
Cc1cccc(-c2nc(CS(=O)CC(=O)NC3CCCC3)c(C)o2)c1 (stereo not drawn)	4µM*[single pt active]
O=c1cc(-c2ccccc2)nc(N2CCCCC2)[nH]1	6%
O=C(Cn1cnc2c(cnn2-c2ccccc2)c1=O)NCCc1ccccc1	8%
Cc1ccc(-c2nnn(CC(=O)Nc3ccccc3-c3ccccc3)n2)c(-n2cnnn2)c1	-8%
O=C(Nc1ccccn1)c1ccc2ccccc2n1	-12%
CC(C)C(c1nnnn1C1CCCCC1)N1CCN(c2ncccn2)CC1 (stereo not drawn)	80%
COc1cccc(C(=O)Nc2cccc(SC)c2)c1	3%
COCCn1c(COc2cccc(OC)c2)nnc1SCC(=O)N1CCOCC1	38%
Clc1ccccc1-c1nnc2sc(-c3ccc(Br)o3)nn12	18%
CC(=O)N(CCN(C(C)=O)c1ccccc1)c1ccccc1	16%
Oc1ccc2c(c1)OCO2	-7%
COc1cc2c(cc1OC)CN(C(=O)Cc1ccc(OC)c(S(=O)(=O)N3CCOCC3)c1)CC2	49%
COc1ccc2c(C)nc(Nc3nc(C)cc(=O)[nH]3)nc2c1	24%
CS(=O)(=O)N(CC(=O)N1CCOCC1)Cc1ccc(Cl)cc1	6%
COC(=O)c1ccc(NC(=O)c2cnc3scc(C)n3c2=O)cc1	-8%
Cn1c(=O)c2c(nc(SCCCC#N)n2Cc2ccccc2F)n(C)c1=O	0%
COC(=O)C(C)C1Sc2ccccc2NC1=O (stereo not drawn)	3%
CCOC(=O)N1CCN(C(=O)c2oc3ccc(S(=O)(=O)N4CC(C)CC(C)C4)cc3c2C)CC1 (stereo not drawn)	152%
Cc1ccc(NC(=O)NC(=O)CSc2nnnn2C)c(C)c1	-5%
CC(C)OP(=O)(c1ccc(N(C)C)cc1)C(O)c1c(Cl)cccc1Cl (stereo not drawn)	52%
c1ccc2c(c1)Cn1nc(Cc3nc4c(s3)CCCC4)nc1-2	44%
Brc1ccc2c(c1)c1nc3ccccc3nc1n2CCN1CCOCC1	71%
O=C(CSc1nnc2scc(-c3ccc(Cl)cc3)n12)NCc1ccco1	-4%
CC1(C)CC(=O)CC(=Nc2ccc3[nH]c(=O)[nH]c3c2)C1	-9%
O=C(Nc1cc(C(F)(F)F)ccc1N1CCOCC1)c1c(F)c(F)c(F)c(F)c1F	-8%
COC(=O)[C@@]1(Cc2ccc(F)cc2)[C@@H]2C(=CC(=O)[C@H]2CC(=O)C(=O)N(C)C)CN1C(=O)c1ccccc1	145%
CC(C)NC(=O)c1cc(-c2ccco2)on1	-5%
Cc1ccc(C)c(N2CCN(S(=O)(=O)c3ccc4c(c3)OCCO4)CC2)c1	5%
CC(=NCCCN1CCOCC1)c1c(O)n(-c2ccccc2C)c(=O)[nH]c1=O	-23%
COC(=O)C(C(=O)Nc1ccccc1C)C1CCCC1 (stereo not drawn)	5%
CC1=C(C(=O)Nc2ccccc2)C(c2ccc3c(c2)OCO3)C2=C(CCCC2=O)N1 (stereo not drawn)	15%

Next section.
SMILES	AmpC inh no det
O=C(NC1CCCCCC1)c1nc2ncccn2n1	-4%
CCN(CC)S(=O)(=O)c1ccc(C(=O)Oc2ccc3c(c2)OCO3)cc1	21%
CCOC(=O)CN(C(=O)CSc1nnc(CNc2ccc(C)cc2C)o1)c1ccccc1	78%
CCNc1ncc2nc(-c3ccccc3)c(=O)n(C[C@H]3CCCO3)c2n1	14%
COC(=O)c1ccccc1NC(=O)COC(=O)c1ccco1	5%
CC(=O)Nc1ccc(S(=O)(=O)N2CCN(C3CCCCCCC3)CC2)cc1	44%
CC(C)CC1(C(=O)NCC2CC2)C=CCN1C(=O)c1ccccc1 (stereo not drawn)	16%
CCN(CC)C(=O)CSc1ncnc2c1cnn2Cc1ccccc1	53%
CC1Cc2nc(SCC(=O)NCCc3ccccc3)n(C)c(=O)c2S1 (stereo not drawn)	14%
O=C(Nc1ccccc1)C1CC2CCCC(C1)C2=O (stereo not drawn)	4%
O=C(c1ccccn1)N(Cc1cc2ccccc2[nH]c1=O)C1CCCCC1	16%
COC(=O)c1cn(NC(=O)C2CCCCC2)c(=O)c2ccccc12	-8%
O=C(Nc1ccccc1N1CCN(c2ccc(F)cc2)CC1)C1CCCCC1	14%
c1ccc(CSc2nnc(-c3cccs3)o2)cc1	5%
CC(=O)N(CN1C(=O)C2CC=CCC2C1=O)c1cccc(Cl)c1 (stereo not drawn)	4%
CC1NC(=O)NC1CCCCCC(=O)NCCc1ccccc1 (stereo not drawn)	83%
N#Cc1nc(COc2ccccc2Cl)oc1N1CCCCCC1	3%
COCCCNC(=O)c1c(F)c(F)c(F)c(F)c1F	4%
O=C1C(Cl)=C(Sc2nnc3c4ccccc4c4ccccc4c3n2)C(=O)c2ccccc21	-23%[5.75 µM]
COc1ccc(CC(=O)Nc2ccc(OC)c(NC(=O)c3ccco3)c2)cc1	-6%
O=C(NCc1ccccc1)C(c1cccs1)N(C(=O)c1csnn1)C1CC1 (stereo not drawn)	0%
Cc1ccc2c(c1)cc(CN(Cc1ccco1)S(=O)(=O)c1ccccc1)c1nnnn12	5%
COc1ccc(-c2nn(-c3ccccc3)cc2C(=O)NCCCn2ccnc2)cc1	64%
Cc1nc(C)c(-c2csc(NCc3ccco3)n2)s1	8%
CCOC(=O)c1c(C)c(C(=O)NC2CCCCCC2)c(C)n1C	23%
CC(C)(NO)/C(=N/O)c1cccs1	-6%
Cc1cc2ncc(C(=O)Nc3ccccc3)c(C)n2n1	18%
COCCn1c(Cc2ccccc2)nnc1SCC(=O)N(C)C	24%
O=C(CCn1cnc2ccccc2c1=O)Nc1ccc(S(=O)(=O)N2CCCCC2)cc1	5%
COc1cccc(NC(=O)C2CCCN2C(=O)Nc2cccc(F)c2)c1 (stereo not drawn)	3%

Rewritten with each value named: two of the compounds above.
Structure: COc1ccc(-c2nn(-c3ccccc3)cc2C(=O)NCCCn2ccnc2)cc1
- AmpC inh no det: 64%

Structure: Cc1ccc2c(c1)cc(CN(Cc1ccco1)S(=O)(=O)c1ccccc1)c1nnnn12
- AmpC inh no det: 5%

(list continues)
SMILES	AmpC inh no det
COc1ccccc1N1CCN(c2cc(C)nc3nc(C)nn23)CC1	13%
O=C(Cc1cccs1)Nc1nnc(SCC(=O)NC2CCCCC2)s1	?
CCCCCCn1c(SCC(=O)c2ccccc2)nc2c1c(=O)[nH]c(=O)n2C	4%
CCOc1ccc(N2C(=O)CC(N3CCN(C(=O)CN4CCCC4)CC3)C2=O)cc1 (stereo not drawn)	10%
O=C(O)C1CCN(c2ncnc3ccc(-c4ccccc4C(F)(F)F)cc23)CC1	6%
CN1C(c2ccc(F)cc2)=CS/C1=C(\C#N)c1nnc2n1-c1ccccc1SC2	25%
CC1=NN(c2ccc(S(=O)(=O)O)cc2C)C(=[OH+])[C@H]1N=Nc1cc(S(=O)(=O)O)ccc1C(=O)O.O.[Cr]	0%[5.75 µM]
O=C(Nc1nc(-c2ccncc2)cs1)C1COc2ccccc2O1 (stereo not drawn)	3%
CC1CCN(CCCNC(=O)c2coc3nc4ccccc4nc23)CC1	15%
O=C(COC(=O)c1cc[n+]([O-])cc1)Nc1ccc2c(c1)OCCO2	-14%
Cc1c(Nc2cc(=O)oc3ccccc23)c(=O)n(-c2ccccc2)n1C	-11%
N#CC1=C(N)Oc2c(sc3ccccc23)C1c1ccco1 (stereo not drawn)	-4%
CCCCOC(=O)Cn1c(=O)c2c(nc(Br)n2Cc2ccccc2)n(C)c1=O	85%
COC(=O)c1ccc(CSc2nc3ccccc3c(=O)n2-c2cccc(OC)c2)o1	27%
Cc1ccc2[nH]c(=O)c(CN(Cc3cccnc3)Cc3nnnn3CCN3CCOCC3)cc2c1	41%

Part of the list above in order of SMILES length, falling.
SMILES	AmpC inh no det
CC1=NN(c2ccc(S(=O)(=O)O)cc2C)C(=[OH+])[C@H]1N=Nc1cc(S(=O)(=O)O)ccc1C(=O)O.O.[Cr]	0%[5.75 µM]
O=C(O)C1CCN(c2ncnc3ccc(-c4ccccc4C(F)(F)F)cc23)CC1	6%
CCCCOC(=O)Cn1c(=O)c2c(nc(Br)n2Cc2ccccc2)n(C)c1=O	85%
O=C(COC(=O)c1cc[n+]([O-])cc1)Nc1ccc2c(c1)OCCO2	-14%
CC1CCN(CCCNC(=O)c2coc3nc4ccccc4nc23)CC1	15%

(list continues)
SMILES	AmpC inh no det
CC1CCN(C(=O)Cn2c(SCC(=O)Nc3nccs3)nc3ccccc32)CC1	-4%
c1ccc2c(-c3nc(-c4ccncc4)no3)cccc2c1	26%
COc1ccc(NC(=O)CSc2nnc(CNC(=O)COc3ccc(Cl)cc3)o2)c(OC)c1	72%
O=c1ccc2cc(S(=O)(=O)Nc3ccc(F)cc3)ccc2o1	-8%
CC(=O)c1ccc(OCC(O)CN2CCN(c3ccccn3)CC2)cc1 (stereo not drawn)	28%
O=C(Nc1ccc(N2CCOCC2)cc1)c1cnsn1	-1%
O=C(Cc1cccs1)N1CCCC(c2nc3c(nnn3Cc3ccc(F)cc3)c(=O)[nH]2)C1 (stereo not drawn)	53%
COc1ccc(OC)c(C(c2nnnn2C2CCCC2)N2CCN(c3ccccc3)CC2)c1 (stereo not drawn)	50%
CCN1C(=O)CC(N2CCN(C(c3ccccc3)c3ccccc3)CC2)C1=O (stereo not drawn)	111%
O=C(O)CCC(=O)N1CCN(c2cccc(Cl)c2)CC1	-3%
Cc1cccc(-n2ncc3c(N4CCc5ccccc54)ncnc32)c1	-3%
CCN1CCN(Cc2ccc(NC(=O)Nc3ccccc3Cl)cc2)CC1	4µM*[single pt active]
COc1cc(NC(=O)C(C)C)ccc1NC(=O)c1ccco1	4%
CCn1c(C(=O)Nc2ccsc2C(=O)OC)cc2sc(Cl)cc21	-8%
O=C(O)C1CCCCC1C(=O)Nc1ccc(Cl)cc1 (stereo not drawn)	6%
O=S(=O)(NCC1OCCc2ccccc21)c1ccc(S(=O)(=O)N2CCOCC2)cc1 (stereo not drawn)	43%
Cc1csc(NC(=O)CCC(=O)N(CC(=O)NC2CCCC2)Cc2ccco2)n1	28%
O=C(O)COc1ccc2nsnc2c1Cl	-9%
COc1ccccc1N1CCN(C(=O)C(NS(=O)(=O)c2cccs2)c2ccccc2)CC1 (stereo not drawn)	52%
O=C(c1cccc(C(=O)N2CCc3ccccc32)n1)N1CCc2ccccc21	24%

Four entries drawn at random from the list so far:
SMILES	AmpC inh no det
CC(=O)c1ccc(OCC(O)CN2CCN(c3ccccn3)CC2)cc1 (stereo not drawn)	28%
COc1cccc(-c2noc(N)c2C#N)c1	-8%
COc1ccc2c(C)nc(Nc3nc(C)cc(=O)[nH]3)nc2c1	24%
CCOc1ccc(N2C(=O)CC(N3CCN(C(=O)CN4CCCC4)CC3)C2=O)cc1 (stereo not drawn)	10%

Gathered by group, the compounds so far containing a CF3 group
SMILES	AmpC inh no det
COc1ccccc1NC(=O)N1CCN(c2cccc(C(F)(F)F)c2)CC1	53%
O=C(Nc1cc(C(F)(F)F)ccc1N1CCOCC1)c1c(F)c(F)c(F)c(F)c1F	-8%
O=C(O)C1CCN(c2ncnc3ccc(-c4ccccc4C(F)(F)F)cc23)CC1	6%

From PubChem BioAssay

Only part of the results is shown; the hit share may differ from the screen's.
